Autofluor counter: flagged as autofluorescent in microsphere protease counterscreen; AID 624483; 3.1% of 360,000 active; fluorescence intensity (concentration not given with the values); compound autofluorescence counterscreen, microsphere flow cytometry; hits give high values;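 active = at least 3 SD above the mean of all compounds, about 16000 in these data; inconclusive = too few beads counted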;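 note: 100 nL of 1 mM stock went into each well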
BJeLR viability: MLPCN primary cell-based screen for lethality selective to Ras in HRASV12 cells; inhibition, % (no concentration beside the values); BJeLR (HRASV12) viability, CellTiter-Glo ATP luminescence, 48 h; reference of the scale not given here; 0.17% of 300,000 active;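 active = replicate mean above 50%; inconclusive = above 50% but judged a plate artefact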;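 note: 50 nL library stock added to about 25 µL; numbers are from one replicate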
RN4220 kill: growth inhibition of S. aureus RN4220, primary screen, OD600. 16 h. inhibition, % (test concentration not listed). 0.33% of 330,000 active;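 active = z-score of -3 or lower and OD600 up to 0.18 on both plates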;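 note: plate controls were untreated cells for no effect and reference antibiotic for full effect; stock transfer was 100 nL into about 80 µL; one replicate is shown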
ugtP null kill: growth inhibition of ugtP-null S. aureus, primary screen, RN4220 ugtP deletion, OD600 | 16 h; some inactives read as strong as hits | growth inhibition, % (concentration not given with the values) | 0.54% of 330,000 active;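 active = z-score under -3 and OD600 up to 0.15 on both plates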;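 note: plate controls were untreated wells for no effect and antibiotic for full effect; wells of about 80 µL received 100 nL stock; the first replicate is given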
Mtb hypoxia rep: PubChem AID 1159583 | fluorescence inhibition, % (test concentration not listed) | 0.1% of 300,000 active | M. tuberculosis hypoxia-regulated fluorescent reporter, fluorescence;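 active = 35 to 45% if threefold the growth effect, above 45% if 1.5-fold the growth effect; inactive = the rest, general growth blockers included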;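 note: wells of about 50 µL received 100 nL stock; 0% = vehicle wells and 100% = reference inhibitor wells; whole bacteria with a GFP reporter of the hypoxia response; strong numbers were not always called active; many hits fall short of the cut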
PrP UTR inh: inhibition of PrP 5' UTR reporter expression | cell-based PrP 5' UTR mRNA reporter, plate reader | inhibition, % (concentration not given with the values) | 0.35% of 340,000 active | AID 488862, 2010;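 active = every replicate at 50% or more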;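 note: 0 = median of the neutral control wells; tested in H4 reporter cells; numbers are from one replicate; inactives centre near -14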
Mtb hypoxia rep growth: second read-out of Mtb hypoxia rep, no call of its own (marks repeat the call); growth inhibition, %; measured here: M. tuberculosis growth (absorbance);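 0% = vehicle and 100% = reference antibiotic; read after six days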
Numbers without * were called inactive; ? = inconclusive; · = not tested or not shown; & = joins results of further samples.

SMILES | Autofluor counter | BJeLR viability | RN4220 kill | ugtP null kill | Mtb hypoxia rep | Mtb hypoxia rep growth | PrP UTR inh
Cc1ccc(SCC(=O)OCC(=O)NCCNC(=O)COC(=O)CSc2ccc(C)c(C)c2)cc1C | 4823 | -19 | 7.9 | -1 | 6 | -4 | 0
COc1ccc(CN2CCN(Cc3ccccc3F)CC2)cc1OC | 3858 | -5 | 1.8 | 2 | 4 | -7 | -14
CCN(CC)C(=O)c1[nH]cnc1C(=O)Nc1ccon1 | 4233 | · | 4.9 | 0 | 5 | 8 | -11
O=C(O)C(O)c1ccccc1 (centres undefined) | 5291&5971 | 2 | -0.6&2.6&8.7 | -9&3&0 | -4&2&8 | -5&2&3 | -9&-12
COc1cc(/C=C2\C(=O)NN(c3ccccc3)C2=O)cc([N+](=O)[O-])c1O | 4890 | -12 | · | · | · | · | -30
COc1ccc(Nc2nnc(C)c3ccccc23)cc1C(N)=O | 5034 | 6 | -1.8 | 4 | · | · | -14
Cc1nn(-c2cc(Cl)ccc2Cl)c(C)c1C(=O)O | 4724 | -1 | 7.7 | 6 | 1 | 14 | 2
COC(=O)C1=C(CCc2ccccc2)NC(=O)NC1c1ccc([N+](=O)[O-])cc1 (centres undefined) | 3342 | -3 | 2.4 | -18 | 0 | 9 | -11
COc1ccc(Cl)cc1NC(=O)CN(C)C(=O)c1n[nH]c2ccccc12 | 7042 | 12 | 4.1 | 5 | 5 | 4 | -20
CCN(c1ccccc1)S(=O)(=O)c1ccc(OC)c(N=N/C(C(=O)Nc2ccccc2)=C(/C)O)c1 | 4168 | -4 | 12 | -1 | 0 | 4 | -32
Cc1ccc(N2CCN(c3ccc(NCc4nc5ccccc5n4C)cc3)CC2)cc1 | 1946 | 4 | · | · | · | · | -6
O=C1C2C(c3ccccc3)CC=CC2C(c2ccoc2)N1Cc1ccccc1 (centres undefined) | · | · | -5.1 | -3 | -1 | 0 | ·
Brc1cccc(-c2nc3cccnc3nc2-c2cccc(Br)c2)c1 | 4003 | -2 | 1.3 | 17 | 10 | 1 | -8
CCCCc1nnc(NC(=O)c2oc3ccc(OC)cc3c2C)s1 | 4775 | -4 | 0.8 | 2 | -9 | -1 | 4
CN(CC(=O)Nc1cccc(F)c1)C(=O)CCSc1ccc(F)cc1 | 6339 | 9 | 1.0 | -1 | -4 | 6 | 0
CC(=O)N/C(=C/c1cccnc1)C(=O)Nc1ccc(Cl)cc1 | 3068 | 0 | · | · | · | · | -12
CC1(C)CC(=O)c2c(oc3ccc(NS(=O)(=O)c4cccc5cccnc45)cc23)C1 | 2695 | -5 | 0.3 | -7 | 9 | -6 | -4
O=C(c1cncc(Br)c1)N1CCN(S(=O)(=O)c2ccccc2C(F)(F)F)CC1 | 4029 | -10 | 6.1 | 2 | 14 | 5 | -22
CCc1ccc2nc3n[nH]c(N)c3cc2c1 | 10475 | 0 | 18 | 59 | -4 | 4 | -25
O=C(CCC(=O)N1CCN(c2ccccn2)CC1)Nc1nnc(C2CCCCC2)s1 | 7980 | 5 | 0.5 | -2 | 0 | 2 | -44
COc1ccccc1OCc1ccc(C(=O)NCc2cccnc2)o1 | 3301 | 3 | 0.6 | 5 | · | · | -18
N#Cc1c(N)oc(-c2ccco2)c1-c1ccco1 | 4054 | 9 | -4.0 | -1 | 13 | 3 | -15
COc1ccc(C(CNC(=O)c2ccccc2SC)N(C)C)cc1 (centres undefined) | 3982 | 8 | 6.7 | -2 | 15 | -2 | -15
COC(=O)c1c(NC(=O)c2ccc(C)o2)sc2c1CCCCC2 | 6437 | 4 | -4.5 | -9 | -11 | 5 | -72
COc1ccc(C(=O)Oc2ccc(-c3nnco3)cc2)cc1S(=O)(=O)N1CCOCC1 | ? | -1 | 4.3 | 2 | -7 | 6 | 0
Cc1noc(C)c1C(=O)Nc1ccc(S(=O)(=O)N2CCC(C)CC2)cc1 | 3041 | · | 5.7 | 1 | 0 | 0 | -15
Cc1ccc(S(=O)(=O)/C(C#N)=C/c2c(N3CCOCC3)nc3c(C)cccn3c2=O)cc1 | 4987 | -8 | 2.7 | 7 | 20 | 15 | ·
Cc1ccc(OCCC(=O)Nc2ccccc2C(=O)N2CCCCC2)cc1 | 5737 | 1 | 1.5 | 7 | 7 | 5 | -36
Cc1cc(Cl)ccc1NC(=S)NCC(C)C | 1997 | 5 | -0.3 | 0 | 12 | -1 | -17
Cc1cc(=O)oc(C)c1C(=O)N1CCCc2ccccc21 | 3664 | 4 | -2.2 | 10 | · | · | -16
Cc1cccc(NC(=O)/C(C#N)=C\c2cccnc2)c1 | 17179* | 3 | -5.1 | -6 | 0 | -6 | -6
CCOc1ccc(/C=C/C(=O)NCCc2ccc(OC)c(OC)c2)cc1 | 1972 | 6 | 1.2 | -2 | · | · | -16
CC(=O)N1CCOc2cc(S(=O)(=O)N3CCN(c4ccccc4)CC3)c(Cl)cc21 | 5664 | 8 | 5.2 | -6 | -4 | -4 | -12
Cc1csc(=NN=C2CCCCC2)n1Cc1ccco1 | · | · | 2.3 | 10 | -1 | 6 | ·
O=C(Nc1cccc(F)c1)C1CCN(C(=O)c2ccco2)CC1 | 5610 | 3 | 1.5 | -2 | -2 | 6 | -8
COc1ccc2[nH]cc(C=O)c2c1 | 9151 | -12 | 6.2 | -4 | 6 | 14 | -21
COCCCNC(=O)c1c[nH]c2ccc(S(=O)(=O)N(C)c3ccccc3C)cc2c1=O | 3431 | -4 | 3.2 | 0 | 12 | 9 | 12
N#Cc1c(C#N)c(-c2ccccc2)n(-c2ccc(C(=O)O)cc2)c1N | 2500 | 10 | -12 | -5 | · | · | -10
CC(NC(=O)CSc1ccccc1)c1ccccc1 (centres undefined) | 3380 | 4 | 2.8 | 2 | -8 | -1 | -34
COc1ccc(C(C)=O)cc1CSc1nnnn1-c1ccc(O)cc1 | 4093 | -13 | 3.2 | 6 | 9 | -2 | -27
COc1ccccc1NC(=O)NCc1ccc2c(c1)OCO2 | · | -15 | -1.0 | 2 | 0 | -6 | ·
Cc1nc2ncnn2c(C)c1CCC(=O)NCc1ccc2c(c1)OCO2 | 6016 | 23 | 3.4 | 4 | 7 | 19 | -13
Cc1ccc(S(=O)(=O)N(C)C)cc1NC(=O)c1cc(C(C)(C)C)nn1Cc1ccccc1 | 6105 | -1 | 2.0 | 4 | -8 | -1 | -18
Cc1ccnc(NS(=O)(=O)c2ccc(NC(=O)c3ccc(N4C(=O)CCC4=O)cc3)cc2)n1 | 2023 | -8 | · | · | · | · | -17
O=C(/C=C\Nc1ccc(Cl)cn1)c1ccc(Br)cc1 | 4831 | -12 | 3.2 | 2 | -2 | 3 | -91
CCN1CCN(C(=O)C(C)Sc2nc3nc(C)cc(C)n3n2)CC1 (centres undefined) | 3912 | · | 5.4 | 2 | 14 | 14 | 0
CCOc1ccc(-n2c(C)nc3cc(C(=O)NCC4CCCO4)ccc32)cc1 (centres undefined) | 4990 | 4 | -8.6 | 4 | -9 | -7 | 1
COc1cccc(C(C(=O)NC(C)(C)C)N(CCc2ccccc2)C(=O)CCC(=O)Nc2cc(C)on2)c1OC (centres undefined) | 3088 | -11 | 5.2 | 5 | -3 | -1 | -2
CC1CCC(NC(=O)c2cc3c(=O)n(C)c4ccccc4c3n2C)CC1 (centres undefined) | 4322 | -8 | 3.2 | 3 | · | · | -12
COCCCNC(=O)CC(NS(=O)(=O)c1ccc(C)cc1)c1ccco1 (centres undefined) | 2713 | 5 | 1.4 | 1 | · | · | -10
Continuation.
SMILES | Autofluor counter | BJeLR viability | RN4220 kill | ugtP null kill | Mtb hypoxia rep | Mtb hypoxia rep growth | PrP UTR inh
CCOC(=O)C1=C(COC(=O)COc2cc(C)ccc2C)NC(=O)NC1C (centres undefined) | 5830 | -9 | 6.1 | 5 | -2 | 0 | -5
COc1ccc(Br)cc1[C@H]1[C@H]2C=CC[C@@H](C)[C@@H]2C(=O)N1Cc1ccccc1 | 4034 | 5 | · | · | · | · | -12
COC(=O)c1ccsc1-n1cc(C#N)c(=O)n(C)c1=O | 3271 | -28 | 3.3 | 1 | 16 | -2 | -37
CCOC(=O)c1c(NC(=S)N2CCOCC2)sc(C)c1C | 3766 | 1 | 3.3 | 3 | -12 | 8 | -12
COc1ccc(-c2coc3cc(O)cc(O)c3c2=O)cc1OC | 4405 | -3 | 4.3 | 2 | 11 | 8 | -47
CCOC(=O)Cc1nn[nH]n1 | 4394 | 2 | -2.6 | -1 | -3 | -5 | -1
NC(=O)c1ccc(N=C2C(=O)Nc3ccc([N+](=O)[O-])cc32)cc1 | 4280 | -9 | -2.9 | 4 | 0 | 16 | -7
COc1ccc(C=Nn2cnnc2SCCO)cc1OC | · | · | -21 | -3 | 4 | 7 | ·
O=C(NC1CCCCC1)C1CCN(S(=O)(=O)c2cccs2)CC1 | 3849 | -1 | 0.1 | 20 | 9 | 11 | -4
Cc1ccn2c(NC(=O)C(C)(C)Oc3ccc(Cl)cc3)c(-c3cccs3)nc2c1 | 2252 | -6 | -1.3 | -5 | 3 | 9 | -9

The final 2 records of the section above open the next one:
SMILES | Autofluor counter | BJeLR viability | RN4220 kill | ugtP null kill | Mtb hypoxia rep | Mtb hypoxia rep growth | PrP UTR inh
O=C(NC1CCCCC1)C1CCN(S(=O)(=O)c2cccs2)CC1 | 3849 | -1 | 0.1 | 20 | 9 | 11 | -4
Cc1ccn2c(NC(=O)C(C)(C)Oc3ccc(Cl)cc3)c(-c3cccs3)nc2c1 | 2252 | -6 | -1.3 | -5 | 3 | 9 | -9
Cc1nc([N+](=O)[O-])c(C(=O)OCc2cccc(Br)c2)n1C | 3993 | -2 | 14 | -58 | 26 | 8 | -22
O=C(Cc1cccc2ccccc12)NCC1CCCO1 (centres undefined) | 2853 | 10 | -0.4 | 5 | · | · | -8
CCNc1nc(NCC)nc(N(C)N=Cc2ccco2)n1 | · | · | 6.5 | 10 | 2 | 7 | ·
COc1cccc(C(=O)N/N=C(\C)c2ccc(NC(=O)Cc3ccccc3)cc2)c1OC | 6683 | 8 | · | · | · | · | -33
COc1ccc(C(=O)NCCSCc2ccccc2)cc1OC | 2469 | -3 | 2.4 | 5 | 12 | 4 | -3
CCCc1ccc(OCc2ccc(C(=O)N/N=C/c3cccnc3)o2)cc1 | 6231 | 6 | · | · | · | · | -51
CC1Oc2ccccc2OC1C(=O)Nc1ccccn1 (centres undefined) | 5209 | 0 | -6.4 | 2 | · | · | -18
CCN(C(=O)COC(=O)/C=C/c1cccc(Cl)c1)c1c(N)n(Cc2ccccc2)c(=O)[nH]c1=O | ? | · | 0.9 | -2 | -3 | 10 | -6
CC(CNC(=O)CCS(=O)(=O)c1ccc2c(c1)NC(=O)CO2)c1ccccc1 (centres undefined) | 4996 | -5 | 0.5 | 2 | 9 | 10 | -11
COc1ccccc1-c1noc(CCC(=O)Nc2cc(C(F)(F)F)ccc2Cl)n1 | ? | 7 | 0.3 | -7 | 0 | -1 | -23
Cc1cc(NC(=O)CSc2nc3ccsc3c(=O)n2CCCCC(=O)O)no1 | 16845* | -22 | 3.0 | 7 | 5 | 1 | -2
CCOC(=O)n1c(=O)[nH]c2ccc(Br)cc21 | 4428 | 4 | 8.4 | 7 | 4 | 3 | -10
Oc1ccc(C[C@@H]2CNCCN2CCCCC2CCCCC2)cc1 | 3745 | 13 | · | · | · | · | -20
CCOC(=O)c1ccc(-c2cc(C)no2)[nH]1 | 2310 | 4 | 2.0 | 1 | 8 | 8 | -42
CCN(CC)CCCC(C)Nc1nccc2cccc(Cl)c12 (centres undefined) | 3955 | · | 3.7 | 6 | 16 | 10 | -12
CCN(CC)S(=O)(=O)c1cccc(C(=O)NN=Cc2ccc(N3CCOCC3)cc2)c1 | · | · | 7.2 | 2 | 9 | -1 | ·
CCOc1ncnc2c1sc1nc3c(cc12)COC(C)(C)C3 | 6054 | · | 1.4 | 3 | 8 | 2 | -4
CCN(C(=O)COc1cc(=O)n(C)c2ccccc12)c1cccc(Cl)c1 | ? | -2 | 7.5 | 0 | 13 | 1 | -18
Cc1ccc2nc(SCC(=O)NCc3ccc(F)cc3)nc(=O)n2c1 | · | -15 | 1.0 | 2 | 3 | 3 | -17

4 entries from above, in CSV form:
SMILES,Autofluor counter,BJeLR viability,RN4220 kill,ugtP null kill,Mtb hypoxia rep,Mtb hypoxia rep growth,PrP UTR inh
CCOC(=O)n1c(=O)[nH]c2ccc(Br)cc21,4428,4,8.4,7,4,3,-10
Oc1ccc(C[C@@H]2CNCCN2CCCCC2CCCCC2)cc1,3745,13,·,·,·,·,-20
CCOC(=O)c1ccc(-c2cc(C)no2)[nH]1,2310,4,2.0,1,8,8,-42
CCN(CC)CCCC(C)Nc1nccc2cccc(Cl)c12 (centres undefined),3955,·,3.7,6,16,10,-12
